Compound activity (PubChem BioAssay)
D2 ag: Beta-Arrestin HTS for Positive Allosteric Modulators of the Human D2 Dopamine Receptor: Agonists. 360,000 compounds, 0.084% hits. activation, % (concentration not given with the values). D(2) dopamine receptor (Homo sapiens), P14416. AID 624465, 2012. DiscoveRx PathHunter D2 beta-arrestin, luminescence, 90 min; 100% = 57 uM dopamine signal; in the data active = activation above about 40%; inconclusive = about 15% to 40%; inactive = below about 15%; also: the text of the record calls up to 30% inactive
Target sequence (P14416 whole entry, looked up): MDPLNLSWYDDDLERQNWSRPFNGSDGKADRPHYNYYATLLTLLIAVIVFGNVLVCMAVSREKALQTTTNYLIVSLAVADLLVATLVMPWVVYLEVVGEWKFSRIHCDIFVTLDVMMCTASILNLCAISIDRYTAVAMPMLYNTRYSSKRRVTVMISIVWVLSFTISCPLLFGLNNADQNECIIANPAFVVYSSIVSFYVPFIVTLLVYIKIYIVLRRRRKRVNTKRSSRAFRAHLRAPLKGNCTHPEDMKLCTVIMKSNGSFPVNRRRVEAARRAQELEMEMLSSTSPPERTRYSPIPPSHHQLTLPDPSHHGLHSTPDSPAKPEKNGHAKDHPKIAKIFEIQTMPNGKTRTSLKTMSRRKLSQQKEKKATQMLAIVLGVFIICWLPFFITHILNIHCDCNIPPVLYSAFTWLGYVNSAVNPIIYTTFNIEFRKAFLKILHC
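Agonist mode: compounds alone added to overnight-plated D2 PathHunter cells for 90 min at 37 C, with 57 uM final dopamine (EC100) defining full response. Beta-arrestin recruitment detected by chemiluminescent reagent, read after 1 h at ambient temperature.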
ClpP mod: qHTS Assay for Activators of ClpP | purified B. subtilis ClpP, FRET peptide cleavage, 20 min | Potency, µM (top dose mostly 57.5 µM), for inactives: at the highest dose activity change, negative = active | 340,000 compounds, 1.9% hits | AID 651965, 2013; active = well fitted falling curve with a large enough effect; inconclusive = small, poorly fitted or top-dose-only effect; inactive = no such curve, though single readings can be large or run the other way; also: potency is read from the fitted curve at half-maximal effect; the source files actives as falling curves though it sought activators and does not explain the sign; nearly all actives have a fitted effect of over 65% in size; many hits overshoot -100%
Target sequence (P80244 whole entry, looked up): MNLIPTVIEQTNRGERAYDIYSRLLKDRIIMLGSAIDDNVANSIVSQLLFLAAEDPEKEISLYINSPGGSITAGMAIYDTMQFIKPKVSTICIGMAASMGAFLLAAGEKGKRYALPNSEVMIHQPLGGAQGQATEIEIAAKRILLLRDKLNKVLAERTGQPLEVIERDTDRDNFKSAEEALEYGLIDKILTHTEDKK
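Purified B. subtilis ClpP, 10 microg/mL final in Tris/HCl pH8 with KCl, BSA, glycerol and Tween-20, cleaved an Abz/nitrotyrosine-quenched decapeptide. Fluorescence (ex 320, em 430) was read at 0 and 20 min at room temperature. Delta was normalized to 5.8 microM ADEP and DMSO/no-enzyme controls.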
PINK1 modulator: A Quantitative High throughput Screen to Identify Chemical Modulators of PINK1 Expression; PINK1 immunofluorescence, high-content cytometry, 24 h; Potency, µM (doses to about 76.6 µM), without a hit: top-dose activation (PINK1 increase), usual class: activators; 410,000 compounds, 0.2% hits; AID 624263, 2012; active = well fitted activation curve with a large enough effect; inconclusive = small, poorly fitted or top-dose-only effect; inactive = flat fitted curve, though single readings scatter; cell line not stated here;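 also: potency is read from the fitted curve at half-maximal effect; % of control where 0% means no effect; nearly all actives have a fitted effect of over 65% in size; a mitochondrial uncoupler was the plate control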
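Decision-based qHTS: stable cells, 24 h exposure to five compound concentrations, CCCP as control. Fixed cells stained for PINK1 plus nuclear, mitochondrial and cell markers, cytometer read.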
Sfp PPTase inh: qHTS Assay for Inhibitors of Bacillus subtilis Sfp phosphopantetheinyl transferase (PPTase). AID 1490, 2009. Potency, µM, inactives show max response, negative = inhibition, actives largely listed as inhibitors. Biochemical Sfp PPTase activity, qHTS. 310,000 compounds, 3.5% hits; active = well fitted inhibition curve with a large enough effect; inconclusive = small, poorly fitted or top-dose-only effect, or another doubt; inactive = no such curve, though single readings can be large or run the other way;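 also: the enzyme is Sfp with the accession as filed and its product quenches rhodamine fluorescence; potency is read from the fitted curve at half-maximal effect; 0% = enzyme reaction without inhibitor and -100% = no enzyme wells; top concentration of the series not given in the record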
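Fluorescence-quenching assay with 15 nM Sfp, 5 uM rhodamine-CoA and 12.5 uM BHQ-2-labelled ybbR peptide in pH 7.6 Hepes/MgCl2 buffer. Enzyme was pre-incubated with compound for 15 min at room temperature. Rate was taken from the 30-min fluorescence change (525/598 nm).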
Menin MLL FP FL: qHTS Assay for Inhibitors Targeting the Menin-MLL Interaction in MLL Related Leukemias: Competition With Fluorescein Labeled MLL-derived Peptide; Fluorescence polarization, fluorescein-MLL peptide displacement from menin; FP activity change, % at 61.4 µM; 290,000 tested, under 10 active; AID 1766, 2009; inconclusive = falling polarisation curve, or a change in total fluorescence; inactive = total fluorescence flat and polarisation flat or rising; no compound was filed as active; the % refers to the polarisation; negative = inhibition;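 also: % of control where 0% means no effect; inhibitors lower the polarisation; unlabelled MLL peptide was the positive control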
gsp antag: qHTS for Antagonists of gsp, the Etiologic Mutation Responsible for Fibrous Dysplasia/McCune-Albright Syndrome: qHTS; AID 624288, 2012; gsp-mutant cells, cAMP HTRF, 30 min; control for the full effect not named in the record; Potency, µM (titrated, usually from 76.9 µM), inactives show at the highest dose activity change, negative = inhibition, usual class: inhibitors; 340,000 compounds, 0.4% hits; active = falling curve of any shape with a large fitted effect; inconclusive = falling curve, mostly with a smaller effect; inactive = flat or rising curve; cell line not stated here;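 also: intracellular cAMP measured with PDE inhibitor Ro 20-1724 present during compound exposure; potency is read from the fitted curve at half-maximal effect; % is scaled to controls: 0 for no effect and ±100 for the full control effect; nearly all actives have a fitted effect of over 65% in size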
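G418-selected cells were plated in DMEM/10% FBS for 16-24 h at 37C, then treated with compounds plus the PDE inhibitor […] (300 uM solution added) for 30 min at 37C. Intracellular cAMP was measured by HTRF after 30 min lysis at room temperature.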
gsp ag: qHTS for Agonist of gsp, the Etiologic Mutation Responsible for Fibrous Dysplasia/McCune-Albright Syndrome: qHTS; AID 624287, 2012; gsp mutant cells, cAMP HTRF, 30 min; control for the full effect not named in the record; Potency, µM (top dose mostly 76.9 µM), inactives show at the top dose activation (cAMP increase), most hits filed as activators; 340,000 compounds, 0.13% hits; active = well fitted activation curve with a large enough effect; inconclusive = small, poorly fitted or top-dose-only effect, or another doubt; inactive = no such curve, though single readings can be large or run the other way; cell line not stated here;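 also: phosphodiesterase inhibitor Ro 20-1724 added with compounds to block cAMP breakdown; potency is read from the fitted curve at half-maximal effect; nearly all actives have a fitted effect of over 60% in size; about a fifth of the inactives were tested at one dose only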
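Cells stably selected in G418 were plated at 2000/well, grown 16-24 hr, then given compounds in DMSO with the PDE inhibitor […] (300 uM solution added) for 30 min at 37C; cAMP was read by HTRF.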
Starred values were filed as active, the others as inactive; u = inconclusive; x = not tested or not shown; & = joins results of further samples; [ ] = remark or other dose.

Order of values – gsp antag, Sfp PPTase inh, gsp ag, ClpP mod, PINK1 modulator, D2 ag, Menin MLL FP FL
> CN1c2ccccc2C(O)=C(C(=S)Nc2ccccc2)S1(=O)=O
  u, -7%, 4%, -1.2%, 1.2%, -5.1, -0.5
> COc1ccc(C(=O)N/N=C/c2ccc(OC)c(COc3ccc(F)cc3)c2)cc1
  u, 18%, 1%, u, 5.8%, -1.7, -6.2
> CN(c1ccccc1C(=O)NCC1CCCO1)S(C)(=O)=O (configuration not stated)
  5%, 17%, 0%, -0.3%, 1.8%, -0.7, 2.2
> COc1ccc(NC(=O)C2(S(=O)(=O)c3ccc(C)cc3)CC2)cc1
  0%, 4%, -24%, x, -0.2%, -4.0, 0.7
> O=C(NC1CCCN(Cc2ccccc2F)C1)c1cccs1 (configuration not stated)
  -8%, 6%, 28%, -1.3%, -0.7%, -5.7, x
> COc1cccc(CNc2cc(C)ccn2)c1O
  -8%, 12%, -29%, x, -0.6%, 5.7, 1.9
> COc1ccc(NC(=O)Cn2nnc(-c3ccccc3NC(=O)c3ccco3)n2)cc1
  9%, u, -46%[inhibitor], -10.0%, 4.8%, -2.1, 5.3
> CCCOc1ccc(C(=O)CCN2CCN(C(=O)OCC)CC2)cc1
  x, -26%, -20%[15.4 µM], x, -1.0%, -2.3, 0.5
> Cc1cccc(NC(=S)Nc2ccc(N3CCOCC3)cc2)c1C
  -12%, -19%, -26%, 1.6%, 0.1%, -4.7, 3.8
> Cc1cc(=O)oc2cc(NC(=O)c3c(Cl)cnn3C)ccc12
  -26%, 12%, 24%, 14%, 5.7%, -0.7, x
> CCOC(=O)c1c(NC(=O)C2CCN(S(=O)(=O)c3cccs3)CC2)sc(C)c1C
  -24%, 5%, 3%, -27%, 0.6%, -1.1, 3.0
> Cc1cc(/C=N/NC(=O)C(O)(c2ccccc2)c2ccccc2)c(C)n1-c1cccc(C(=O)O)c1
  3%, 40µM*, 20%, -9.7%, -1.2%, -3.5, u
> O=C(c1ccc(NC2=NC3CS(=O)(=O)CC3S2)cc1)N1CCN(c2ccccc2F)CC1 (configuration not stated)
  -5%, 16%, 5%, -2.0%, 1.0%, -9.1, 1.9
> O=C(NCN1C(=O)C2C3C=CC(C3)C2C1=O)Nc1ccccn1 (configuration not stated)
  10%, 10%, 8%, 0.6%, -1.1%, -4.0, 6.9
> Cc1cc(F)ccc1S(=O)(=O)Nc1ncnc2scc(-c3ccc(F)cc3)c12
  -26%, 10%, 11%[15.4 µM], 0.4%, -1.9%, -2.2, 4.6
> COc1ccc(COC(=O)Nc2cc3c(C(F)(F)F)nn(C)c3s2)cc1
  -25%, 2%, 26%, -0.9%, 2.3%, 1.0, 0.5
> O=C(CN1C(=O)NC(c2ccccc2)(c2ccccc2)C1=O)NCc1cccs1
  4%, x, 16%, 0.2%, 0.4%, 5.4, x
> COc1ccccc1[C@@H]1C(c2cccc(Cl)c2)=NN(c2ccc(Br)cc2)[C@H]1C(=O)N1CCOC1=O
  4%, 4%&2%, x, 3.5%, 2.5%, 0.2, -4.3&0.1
> CCCCSc1nc2c(c(=O)n1CC)SC(C)C2 (configuration not stated)
  -9%, -12%, -24%, 1.3%, 3.4%, 1.9, 5.3
> Cc1cc(/C=N/N2CCN(C)CC2)c(C)n1-c1ccc(Cl)cc1
  15%, -17%, 2%[15.4 µM], x, 6.6%, 3.3, 3.0
> Clc1ccc2c(c1)C(C1=NCCN1)c1ccccc1CS2 (configuration not stated)
  14%, 28%, 13%, -3.8%, u, -2.2, 4.5
> O=C(Nc1cc([N+](=O)[O-])ccc1O)c1cccc(C(=O)Nc2cc([N+](=O)[O-])ccc2O)c1
  -1%, 13%, u, -2.3%, -1.6%, -3.4, 4.0
> CCc1c(C)nc(N2CCN(c3cccc(OC)c3)CC2)[nH]c1=O
  -14%, 15%, 1%, -0.2%, 0.4%, 12, -3.6
> CCCCn1c(N)c(N(CC(C)C)C(=O)c2ccc3c(c2)NC(=O)C(C)S3)c(=O)[nH]c1=O (configuration not stated)
  14%, 10%, -15%, 2.4%, -2.4%, 1.9, x
> CNC(=O)N1c2ccccc2CCc2ccccc21
  6%, 20%, 2%, -2.0%, 0.2%, 0.5, -1.1
> COc1ccccc1C(=O)NC(CCSC)C(=O)NCC(c1cccs1)N(C)C (configuration not stated)
  7%, x, 5%[15.4 µM], u, 0.6%, -0.7, x
> O=C(NC1CC1)C1CCN(Cc2cnn(-c3ccccc3)c2-n2cccc2)CC1
  6%, 8%, 22%, 0.9%, x, -3.3, 2.7
> Cc1cc(C)cc(OCc2nc(-c3cccnc3)no2)c1
  11%, 20%, -15%, 1.1%, -0.6%, 0.7, -1.3
> Cc1cc(S(=O)(=O)N2CCOCC2)ccc1OCC(=O)N1CCCC1
  19%, 1%, -7%[15.4 µM], x, 1.3%, -0.7, 5.5
> COc1ccc(S(=O)(=O)N2CCc3ccccc32)cc1C(=O)NCC(c1ccco1)N1CCCC1 (configuration not stated)
  -4%, x, 11%, -2.1%, -0.2%, -3.9, x
> Cc1ccc(NC(=O)CSc2ncc3ccccn23)cc1C
  -7%, u, -25%, -28%, 1.5%, -4.7, -1.3
> Cn1cc(Br)c(-c2cccc(N3C(=O)CCCC3=O)c2)n1
  14%, 9%, -6%[15.4 µM], 0.6%, 1.8%, -1.8, 2.4
> NC(=O)c1ccc(-n2nnnc2SCC(=O)NC2CCCCC2)cc1
  7%, 1%, -75%, -1.1%, 0.2%, -5.3, -2.0
> Cc1csc(NC(=O)Cc2ccccc2[N+](=O)[O-])n1
  -4%, 1%, -11%, -1.0%, 2.6%, 0.2, 0.9
> O=C(Nc1ccc(N2CCOCC2)cc1)c1csc([C@@H]2C[C@H](O)[C@@H](CO)O2)n1
  x, x, x, -0.9%, 2.3%, -4.5, x
> O=[N+]([O-])c1ccc2nc(SCc3cn4cc(Cl)ccc4n3)[nH]c2c1
  -7%, u, -7%[15.4 µM], 0.4%, 3.4%, -7.0, -3.3
> Cc1ccc(CN2CCC(C(=O)Nc3ccc(Oc4cccnc4)cc3)CC2)cc1
  10%, 11%, 10%, 1.0%, 6.7%, -5.7, 1.8
> O=C1N(Cc2ccccc2)CC2(Br)COCOC12O (configuration not stated)
  -2%, x, -46%[inhibitor], -3.5%, 3.9%, -4.0, x
> COc1cc(C(=O)Oc2ccccc2N)cc(OC)c1OC
  -3%, -9%, 28%, 1.1%, 3.6%, 5.1, 0.8
> CCCCOc1ccc(C(=O)N2CCN(c3ncccn3)CC2)cc1
  -3%, 7%, 3%, -10%, -0.3%, -3.6, -0.8
> Cc1nc(NC(=O)CSc2nccn2C)sc1C(=O)N(C)C
  2%, -3%, -20%, 1.6%, 0.4%, -1.9, x
> CC1CC(C)CN(C(=O)CSc2nnc(-c3ccc(Cl)s3)o2)C1 (configuration not stated)
  -17%, -30%, -33%[inhibitor], u, 0.6%, -4.5, 0.8
> Cc1c(NS(=O)(=O)c2ccc(N3CCN(C)CC3)c([N+](=O)[O-])c2)c(=O)n(-c2ccccc2)n1C
  11%, 19%, 1%[15.4 µM], x, 0.6%, -4.1, -0.4
> O=C1CCC(=O)N1c1nc2n(n1)C(c1ccccc1)C=C(c1ccc(Br)cc1)N2 (configuration not stated)
  -2%, u, 25%, 62%, 1.2%, -4.8, u
> NC(=O)C1CCN(C(=O)c2ccc3ccccc3c2)CC1
  12%, 19%, u, x, 0.0%, -2.6, 1.5
> N/C(=N\OC(=O)/C=C/c1ccccc1)c1ccc(Br)cc1
  8%, 9%, 2%[15.4 µM], x, 4.7%, u, -1.4
> Cc1ccc(S(=O)(=O)N2CCCCC2)cc1C(=O)N(C)CC(=O)Nc1ccc(Cl)c(C(F)(F)F)c1
  u, 2%, -1%, 1.0%, 23%, -1.4, -1.3
> CCOC(=O)c1ccccc1NS(=O)(=O)c1ccccc1
  u, 12%, -1%, -5.0%, -2.8%[38.3 µM], -1.5, 0.9
> CC1(C(=O)NS(=O)(=O)c2ccccc2OC(F)(F)F)CCN1C(=O)c1ccccc1 (configuration not stated)
  x, x, x, -0.6%, 0.3%, -2.9, x
> CN(CC(=O)NCc1ccc(F)cc1)S(=O)(=O)c1ccc(Br)s1
  -1%, 14%, -2%, x, -2.0%, -1.3, -0.8

Following part
Order of values – gsp antag, Sfp PPTase inh, gsp ag, ClpP mod, PINK1 modulator, D2 ag, Menin MLL FP FL
> CCOC(=O)CCSc1nc(C)c2cc(C)ccc2n1
  4%, 0%, 0%, -15%, -2.0%[38.3 µM], -1.5, 1.8
> COc1ccc(OC)c(NC(=O)Nc2nc(C(N)C(C)C)cs2)c1 (configuration not stated)
  x, x, x, 0.3%, 1.5%, 2.5, x
> COC(=O)CCN1CCC2CC1c1cc(-c3cccc(C)c3)ccc12 (configuration not stated)
  1%, x, x, 2.7%, 6.0%, 3.4, x
> COCc1[nH]nc2c1C(c1c(F)cccc1Cl)C(C#N)=C(N)O2 (configuration not stated)
  6%[15.4 µM], u, -17%, 0.0%, -1.5%, -0.3, 3.5
> CN1CCN(c2ncc3nc(-c4cc(F)cc(F)c4)c(=O)n(CCc4ccccc4)c3n2)CC1
  x, -5%, x, x, 1.1%, x, -6.5
> CS(=O)(=O)c1ccc(Cl)c(NC(=O)COC(=O)c2ccc(-n3cnnn3)cc2)c1
  -2%, x, -1%, -17%, 18%, 4.1, x
> Cn1c(=O)n(Cc2ccc(Cl)cc2)c(=O)c2c1nc1n2CCN1Cc1ccco1
  -21%, -22%, 0%, 1.6%, 0.0%, 2.6, -3.1
